High-throughput results from PubChem BioAssay.
rRNA inh HTS = selective bacterial rRNA inhibition in E. coli; E. coli WT GFP vs humanized-ribosome RFP mutants, fluorescence, 24 h; stronger effect = lower value; DMSO median 0, no signal -100; GFP signal change (wild-type ribosome), % (no concentration beside the values); 1.6% of 350,000 active; AID 720706;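 active = significant combined selectivity score with lowered wild-type GFP, culture density cut under 30%, mutant RFP and density less affected; inactive = any of these conditions unmet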; note: one replicate is shown; some compounds called inactive have numbers as strong as hits
MLL AF4-AF9 inh = MLL-AF4/AF9 protein interaction inhibition. P42568. AlphaScreen, biotin-AF4 peptide binding to FLAG-AF9. inhibition, % at 10 µM. 0.47% of 350,000 active. AID 651704;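 active = every replicate reaching a set inhibition limit, whatever the replicate mean, cut at about 25% in these data; inconclusive = mean inhibition reaches that limit but some replicates miss it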;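 note: 0% = plate neutral control median and 100% = total signal loss; the record names both 10 and 1 µM as test concentration; the first replicate is given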
Target sequence (P42568 whole entry, looked up): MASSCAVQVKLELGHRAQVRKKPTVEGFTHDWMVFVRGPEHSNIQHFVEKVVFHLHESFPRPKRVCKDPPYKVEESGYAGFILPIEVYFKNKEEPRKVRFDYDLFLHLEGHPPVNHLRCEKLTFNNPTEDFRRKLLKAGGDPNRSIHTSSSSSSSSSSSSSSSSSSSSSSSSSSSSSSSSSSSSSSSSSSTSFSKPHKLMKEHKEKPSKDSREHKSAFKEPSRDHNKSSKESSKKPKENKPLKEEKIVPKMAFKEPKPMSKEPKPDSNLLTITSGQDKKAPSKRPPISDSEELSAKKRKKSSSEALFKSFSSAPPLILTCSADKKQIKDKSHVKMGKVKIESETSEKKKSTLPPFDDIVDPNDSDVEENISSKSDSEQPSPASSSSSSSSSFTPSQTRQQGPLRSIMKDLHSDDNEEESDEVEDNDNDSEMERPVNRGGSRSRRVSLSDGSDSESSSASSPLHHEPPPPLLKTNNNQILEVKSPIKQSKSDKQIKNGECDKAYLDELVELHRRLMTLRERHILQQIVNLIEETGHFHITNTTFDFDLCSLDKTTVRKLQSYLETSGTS
UCH37 inh = human UCH37 deubiquitinating enzyme inhibition | purified proteasome/UCH37, Ub-AMC cleavage fluorescence | inhibition, % (concentration not given with the values) | 0.33% of 330,000 active | AID 588478;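 active = mean of two replicates above 20%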;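 note: 0% = compound-free wells with enzyme and 100% = wells lacking proteasome; stock transfer was 100 nL into about 20 µL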
Target sequence (Q9Y5K5 whole entry, looked up): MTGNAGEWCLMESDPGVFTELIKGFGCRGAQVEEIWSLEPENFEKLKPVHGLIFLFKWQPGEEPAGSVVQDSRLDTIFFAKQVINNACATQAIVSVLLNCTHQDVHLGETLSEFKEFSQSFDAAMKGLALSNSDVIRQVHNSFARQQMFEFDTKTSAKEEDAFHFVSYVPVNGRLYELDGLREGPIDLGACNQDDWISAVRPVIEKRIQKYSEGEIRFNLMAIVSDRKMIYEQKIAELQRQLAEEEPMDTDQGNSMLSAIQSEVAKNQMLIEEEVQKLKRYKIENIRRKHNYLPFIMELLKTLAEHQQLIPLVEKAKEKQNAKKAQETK
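Material: human UCH37 enzyme supplied as purified proteasome complex. Measure: % inhibition of Ub-AMC cleavage fluorescence. Medium: pH 7.4 Tris-HCl (50 mM) with ovalbumin, ATP-MgCl2, DTT. Times: 30 min preincubation with enzyme, 25 min cleavage at room temperature. Detection: AMC fluorescence intensity at 355/460 nm.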
E coli growth = blocks Escherichia coli growth. OD600, 23 h; stronger effect = lower value. OD600 absorbance (concentration not given with the values). 0.21% of 330,000 active;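 active = OD600 absorbance below the run mean of sample wells minus 3.6 SD, in any replicate, cut at about 0.56 in these data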;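 note: stock transfer was 300 nL into about 60 µL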
FGF22 binding = binders of recombinant human FGF22 by thermal shift. SYPRO orange fluorescence; percent of sucrose octasulfate shift, DMSO zero. Q9HCT0. 1.5% of 340,000 active. AID 651658. calls only at 9.99 µM;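 active = melting point raised past a set limit in the mean and every replicate; inconclusive = no clear call; three in four hits are not shown here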
Beta apoptosis = blocks beta cell apoptosis; INS-1E cytokine-induced death, ATP luminescence, 48 h; percent of positive-control rescue, neutral wells zero; protection from apoptosis, % (no concentration beside the values); 0.8% of 300,000 active;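 active = all replicates at 75% or more, or half of them and the mean; inconclusive = half reach 75% but not the mean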;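 note: 0% = cytokine-treated negative control wells and 100% = positive control rescue; higher means more ATP so stronger rescue from cytokine killing; wells of about 40 µL received 100 nL stock; the first replicate is given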
T cruzi repl = blocks replication of Trypanosoma cruzi; inhibition, % (test concentration not listed); 1.4% of 300,000 active; AID 1885; T. cruzi beta-gal in NIH3T3, luminescence, 90 h;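 active = mean inhibition across valid replicates above about 55%, limit read from the data; inconclusive = mean below that limit but half or more replicates reach it; inactive = mean below it, under half of replicates reach it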;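 note: signal also drops with host cell toxicity which is not excluded here; 0% = plate median of DMSO wells and 100% = zero luminescence signal; higher percent means less beta-gal luminescence so fewer parasites; stock transfer was 50 nL into about 50 µL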
Bfl-1 A1 inh = inhibitors of the anti-apoptotic protein A1, read as caspase activation; MEF A1-2A-BIM cells, Caspase-Glo 3/7 luminescence, 3 h; percent of clofoctol response, vehicle zero; caspase activation, % (no concentration beside the values); 0.066% of 330,000 active;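 active = over half of replicate activation scores above 10%, or exactly half above 10 with the replicate mean above 10; inconclusive = replicate mean below 10 yet half the replicates above 10; inactive = over half of replicates below 10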;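 note: wells of about 30 µL received 50 nL stock; many hits fall short of the cut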
rRNA inh HTS OD600 = also measured in rRNA inh HTS; calls as there; OD600 change, %; measured here: OD600 growth;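 optical density of the mix in the first replicate; 0 = DMSO median and -100 = no signal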
rRNA inh HTS RFP = recorded beside rRNA inh HTS, whose call it bears; RFP signal change, %; measured here: RFP humanized mutant strains;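 first replicate; 0 = DMSO median and -100 = no signal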
Active calls of the source: *; i = inactive; u = inconclusive; x = not tested or not shown.

SMILES	rRNA inh HTS	rRNA inh HTS OD600	rRNA inh HTS RFP	MLL AF4-AF9 inh	UCH37 inh	E coli growth	FGF22 binding	Beta apoptosis	T cruzi repl	Bfl-1 A1 inh
O=S(=O)(c1ccc2c(c1)C(=NO)c1cc(S(=O)(=O)N3CCCCC3)ccc1-2)N1CCCCC1	x	x	x	x	-79.4	0.708	x	106.4*	76.9*	0.6
CCOC(=O)C1=CNS(=O)(=O)NC1c1cccc(O)c1 (centres undefined)	17.1	6.6	1.9	-2.5	2.1	0.658	i	x	x	x
CNC(=O)c1c(C)nc(SCC(=O)NCc2ccc(OC)cc2)c(C#N)c1-c1ccco1	x	x	x	x	3.1	0.698	x	-7.3	3.8	-0.5
CC(=O)c1ccc(NC(=O)NNS(=O)(=O)c2ccc([N+](=O)[O-])cc2)cc1	-5.4	9.9	-2.0	-1.5	3.9	0.706	i	-9.7	-3.3	0.0
COc1ccc(NC(=S)NCCCN2CCN(C3CCCCC3)CC2)cc1	31.9	15.5	4.1	9.6	3.4	0.675	i	-0.7	22.6	-0.5
COc1cccc(NC(=O)c2cc(-c3ccco3)nc3ccccc23)c1	-13.1	8.2	-2.0	-3.8	-40.2	0.609	i	-3.3	8.1	-0.1
CCN(CC)c1ccc(C2C(C(C)=O)C(=O)CC(C)(O)C2C(C)=O)cc1 (centres undefined)	x	x	x	x	1.6	0.69	x	2.0	8.0	-0.2
CC1CCCCC1NC(=O)COC(=O)c1ccc([N+](=O)[O-])o1 (centres undefined)	-0.4	-2.2	-0.9	1.0	30.3*	0.61	i	x	x	x
CCS(=O)(=O)N1Cc2ccccc2CC1C(=O)Nc1ccc(OC)cc1OC (centres undefined)	3.5	-6.3	0.4	-0.6	-1.5	0.727	i	-1.4	7.2	0.3
CCN(CC(=O)NC1CCCC1)S(=O)(=O)c1ccc(F)cc1	2.0	4.1	-0.9	-0.4	2.9	0.686	i	x	-15.2	1.0
O=C(COc1ccc(F)cc1)c1ccc2c(c1)CCCC2	x	x	x	x	-3.9	0.721	x	-1.3	6.2	1.9
Cc1ccc(C(=O)O/N=C/c2ccc3c(c2)OCO3)cc1	11.8	14.5	-5.4	8.8	x	x	i	-4.5	-12.8	-1.3
O=C(Nc1c2c(nn1-c1ccccc1)CS(=O)C2)c1ccco1 (centres undefined)	7.5	2.1	5.5	-0.8	-0.3	0.692	i	-4.9	-3.5	0.3
Cc1cc(-c2n[nH]c(=S)n2-c2ccccc2C)cs1	x	x	x	x	4.3	0.639	x	x	1.3	1.0
Cc1cccc(N(C)S(=O)(=O)c2cc3c(cc2C)n(C)c(=O)c(=O)n3C)c1	-10.5	-2.7	-2.9	-2.9	2.5	0.737	i	-1.9	16.8	0.3
Cc1oc(-c2cccs2)nc1CNC[C@H]1O[C@@H](n2cnc3c(N)ncnc32)[C@H](O)[C@@H]1O	-0.2	1.4	0.2	0.7	2.5	0.708	i	0.2	x	-1.2
O=C(NC(=S)NC1CCSC1=O)c1ccccc1Cl (centres undefined)	x	x	x	x	0.5	0.733	x	-2.2	0.9	0.5
COc1ccccc1CNC(=O)C(=O)NCC1OCCN1S(=O)(=O)c1cccs1 (centres undefined)	-4.1	3.8	-6.2	-10.2	3.3	0.726	i	3.5	-2.6	-0.5
CCOc1ccc(NS(=O)(=O)c2cc(NC(=O)CCC(=O)c3cccs3)ccc2Cl)cc1	-11.5	-10.7	0.8	-3.2	x	x	i	-5.2	18.3	0.2
CC1CCCN(CCCNC(=O)c2cc3c(s2)-c2ccccc2OC3)C1 (centres undefined)	-20.0	-7.9	10.5	6.8	i	0.643	i	-2.6	2.7	0.1
CCN(CC)C(=O)CSc1nnc(-c2ccccc2)n1-c1ccccc1	x	x	x	x	3.1	0.78	x	-4.2	3.2	1.0
CC(C)CC(=O)NC(=S)Nc1ccc(S(=O)(=O)N2CCN(C)CC2)cc1	x	x	x	-13.1	-1.2	0.677	i	-4.4	17.0	-0.5
N#CCC(=O)NNC(=S)Nc1ccccc1C(F)(F)F	7.2	1.7	-3.1	3.1	2.1	0.715	i	10.2	-11.6	-0.7
CC1CCN(S(=O)(=O)c2ccc3c(c2)CCN3C(=O)CCC(=O)O)CC1	x	x	x	x	1.9	0.742	x	-6.2	-29.3	-0.4

Quoted from the entries so far, 11 compounds:
SMILES	rRNA inh HTS	rRNA inh HTS OD600	rRNA inh HTS RFP	MLL AF4-AF9 inh	UCH37 inh	E coli growth	FGF22 binding	Beta apoptosis	T cruzi repl	Bfl-1 A1 inh
O=S(=O)(c1ccc2c(c1)C(=NO)c1cc(S(=O)(=O)N3CCCCC3)ccc1-2)N1CCCCC1	x	x	x	x	-79.4	0.708	x	106.4*	76.9*	0.6
CCOC(=O)C1=CNS(=O)(=O)NC1c1cccc(O)c1 (centres undefined)	17.1	6.6	1.9	-2.5	2.1	0.658	i	x	x	x
CNC(=O)c1c(C)nc(SCC(=O)NCc2ccc(OC)cc2)c(C#N)c1-c1ccco1	x	x	x	x	3.1	0.698	x	-7.3	3.8	-0.5
CC(=O)c1ccc(NC(=O)NNS(=O)(=O)c2ccc([N+](=O)[O-])cc2)cc1	-5.4	9.9	-2.0	-1.5	3.9	0.706	i	-9.7	-3.3	0.0
COc1ccc(NC(=S)NCCCN2CCN(C3CCCCC3)CC2)cc1	31.9	15.5	4.1	9.6	3.4	0.675	i	-0.7	22.6	-0.5
COc1cccc(NC(=O)c2cc(-c3ccco3)nc3ccccc23)c1	-13.1	8.2	-2.0	-3.8	-40.2	0.609	i	-3.3	8.1	-0.1
CCN(CC)c1ccc(C2C(C(C)=O)C(=O)CC(C)(O)C2C(C)=O)cc1 (centres undefined)	x	x	x	x	1.6	0.69	x	2.0	8.0	-0.2
CC1CCCCC1NC(=O)COC(=O)c1ccc([N+](=O)[O-])o1 (centres undefined)	-0.4	-2.2	-0.9	1.0	30.3*	0.61	i	x	x	x
CCS(=O)(=O)N1Cc2ccccc2CC1C(=O)Nc1ccc(OC)cc1OC (centres undefined)	3.5	-6.3	0.4	-0.6	-1.5	0.727	i	-1.4	7.2	0.3
CCN(CC(=O)NC1CCCC1)S(=O)(=O)c1ccc(F)cc1	2.0	4.1	-0.9	-0.4	2.9	0.686	i	x	-15.2	1.0
O=C(COc1ccc(F)cc1)c1ccc2c(c1)CCCC2	x	x	x	x	-3.9	0.721	x	-1.3	6.2	1.9

(further entries)
SMILES	rRNA inh HTS	rRNA inh HTS OD600	rRNA inh HTS RFP	MLL AF4-AF9 inh	UCH37 inh	E coli growth	FGF22 binding	Beta apoptosis	T cruzi repl	Bfl-1 A1 inh
CN(c1ccc(C(=O)N2CCCCC2)cc1)S(C)(=O)=O	x	x	x	x	-2.6	0.682	x	0.2	-12.8	0.9
Cc1cc([N+](=O)[O-])nn1CCCC(=O)Nc1sc2c(c1C(N)=O)CCCC2	x	x	x	x	4.3	0.67	x	-13.7	3.3	-0.6
O=S(=O)(Nc1ncnc2sc3c(c12)CCC3)c1cc(F)ccc1F	-7.1	-16.1	5.0	6.2	-1.4	0.651	i	12.2	4.6	0.9
O=C(NCc1ccc(F)cc1)c1ccc(CS(=O)(=O)c2ccc(Br)cc2)o1	-13.3	-8.4	-7.2	0.5	-0.4	0.681	i	-1.3	-4.1	0.6
C=CCn1c(SCCOc2ccccc2)nnc1C(C)NC(=O)c1ccccc1 (centres undefined)	x	x	x	x	3.5	0.731	x	-3.8	4.5	1.2
O=C(Nc1ccc(F)cc1)Nc1nnc(-c2ccccc2)o1	10.1	0.9	-1.8	0.3	1.8	0.702	i	-3.4	-17.7	-0.1
CCOC(=O)/C=c1\s/c(=C\c2ccccc2C)c(=O)n1CC(=O)NCc1ccc2c(c1)OCO2	7.2	4.7	0.3	-6.5	x	x	i	9.5	11.5	2.1
COc1ccc(CC(=O)Nc2cccnc2)cc1	5.4	10.7	0.9	2.4	2.6	0.661	i	4.7	-9.6	-0.3
O=C(N/N=C/c1ccc(F)cc1)c1ccc(Br)cc1	8.3	3.3	-3.9	9.8	x	x	i	3.5	3.9	-0.5
O=C(N/C=N/OCc1ccc(Cl)cc1Cl)NOCc1ncc(C(F)(F)F)cc1Cl	x	x	x	x	-3.0	0.735	x	-17.9	-0.2	u
COc1ccc(OC)c(S(=O)(=O)Nc2cccc(C(C)=O)c2)c1	x	x	x	x	0.3	0.6	x	2.9	-6.0	0.0
O=C(Nc1nnc(C2=COCCO2)o1)c1ccc(Cc2ccccc2)cc1	-46.3*	11.6*	-13.4*	-1.1	1.9	0.69	i	-0.5	-13.5	-0.5
CCn1c(CC(=O)Nc2ccccc2)nnc1SCc1nc2ccccc2c(=O)[nH]1	2.8	0.8	-4.8	-0.9	3.0	0.728	i	3.7	4.2	0.2
Cc1nn(C)c(C)c1S(=O)(=O)N(CC(=O)N1CCc2ccccc2C1)c1ccc(C(C)C)cc1	-2.5	-6.3	4.6	-10.7	3.9	0.675	i	3.6	19.5	-0.2
OC(COc1ccc(OCC(O)CN2CCCCCC2)cc1)CN1CCCCCC1 (centres undefined)	x	x	x	x	-1.0	0.797	x	3.2	7.8	0.5
O=C(Nc1ncc(S(=O)(=O)c2ccc([N+](=O)[O-])cc2)s1)c1ccc2ccccc2c1	x	x	x	x	5.8	0.697	x	26.4	55.0*	0.6
C=CCNC(=O)c1ccccc1NS(=O)(=O)c1ccccc1	x	x	x	x	-4.2	0.749	x	x	4.4	-0.1
Cc1ccc(C(CC(=O)NCc2ccco2)c2ccc(OC(C)C)cc2)cc1 (centres undefined)	x	x	x	-0.4	5.0	0.678	x	0.9	17.8	0.0
Cc1cccc(N(CC(=O)Nc2ccc(F)cc2)S(C)(=O)=O)c1	x	x	x	x	3.8	0.707	x	7.0	-23.4	0.9
C=CCSc1nc(Oc2ccccc2)c2sccc2n1	x	x	x	x	3.7	0.769	x	x	9.7	-0.2
Cc1c(C(=O)Nc2ccc(Nc3ccccc3)cc2)cccc1[N+](=O)[O-]	-15.1	-25.8	-0.4	9.1	-0.3	0.682	i	9.9	14.7	-0.2
COCCNCC(=O)NCC12CC3CC(CC(C3)C1)C2	x	x	x	x	2.1	0.692	x	x	19.8	-0.5
O=C(CN1C(=O)NC(Cc2c[nH]c3ccccc23)C1=O)Nc1cccc(S(=O)(=O)N2CCCCCC2)c1 (centres undefined)	x	x	x	x	-0.7	0.673	x	8.5	-26.3	0.3
CCOc1ccc(-n2c(-c3ccco3)n[nH]c2=S)cc1	x	x	x	x	3.2	0.706	x	-8.3	10.3	0.6

Some of the compounds tested (hit frequency here may not be typical).
